Screens: PubChem BioAssay, several laboratories
Calb FLC: affects C. albicans growth with fluconazole; 300,000 tested, 0.57% active; growth inhibition, % (concentration not given with the values); C. albicans CaCi-2 (fluconazole-resistant clinical isolate) + fluconazole, Alamar Blue growth, 48 h;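 active = most replicates above 75%; inconclusive = exactly half above 75%; inactive = most below 75%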;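 note: all wells also contain fluconazole at 8 µg/ml as a sub-toxic cotreatment; 0% = median of DMSO wells and 100% = median of geldanamycin control wells; wells of about 8 µL received 7.5 nL stock; the first replicate is given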
Vif TR-FRET: inhibitors of Vif binding to APOBEC3G peptide, primary screen, biochemical, TR-FRET, GST-Vif 1-94, biotin-A3G peptide, dose response retest (AID 1117319) | TR-FRET GST-Vif / biotin-A3G peptide binding; higher % means a stronger effect; test concentration not given here; strong numbers were not always called active | one-dose inhibition, %; IC50 in µM for titrated hits | 260,000 tested, 0.57% active;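 active = above the screen mean plus three standard deviations and confirmed in dose response; inconclusive = results disagree or hit not tested in dose response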;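 note: Vif residues 1-94 fused to GST binding biotinylated APOBEC3G peptide 110-148; 0% = full assay without inhibitor and 100% = GST in place of GST-Vif; retest series ran down from 100 µM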
RanGTP-Impb inh: inhibitors of RanGTP-importin-beta interaction, primary screen, biochemical, FRET, CFP-Ran, YFP-importin-beta, homogeneous | inhibition, % (test concentration not listed) | 300,000 tested, 1.1% active | cell-free CFP-Ran/YFP-importin-beta FRET ratio;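 active = most replicates above 15%; inconclusive = exactly half above 15%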;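 note: 0% = DMSO wells and 100% = Ran loaded with GDP instead of GTP; wells of about 40 µL received 100 nL stock; the first replicate is given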
Beta cell apopt: blocks beta cell apoptosis; INS-1E cytokine-induced death, ATP luminescence, 48 h; percent of positive-control rescue, neutral wells zero; protection from apoptosis, % (concentration not given with the values); AID 435005; 300,000 tested, 0.8% active;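 active = all replicates at 75% or more, or half of them and the mean; inconclusive = half reach 75% but not the mean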;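 note: 0% = cytokine-treated negative control wells and 100% = positive control rescue; higher means more ATP so stronger rescue from cytokine killing; wells of about 40 µL received 100 nL stock; the first replicate is given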
A1 inh: inhibitors of the anti-apoptotic protein A1, read as caspase activation; MEF A1-2A-BIM cells, Caspase-Glo 3/7 luminescence, 3 h; percent of clofoctol response, vehicle zero; caspase activation, % (concentration not given with the values); 330,000 tested, 0.066% active; AID 2462;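 active = over half of replicate activation scores above 10%, or exactly half above 10 with the replicate mean above 10; inconclusive = replicate mean below 10 yet half the replicates above 10; inactive = over half of replicates below 10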;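 note: wells of about 30 µL received 50 nL stock; many hits fall short of the cut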
T cruzi repl: blocks replication of Trypanosoma cruzi. T. cruzi beta-gal in NIH3T3, luminescence, 90 h. inhibition, % (concentration not given with the values). 300,000 tested, 1.4% active. AID 1885;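 active = mean inhibition across valid replicates above about 55%, limit read from the data; inconclusive = mean below that limit but half or more replicates reach it; inactive = mean below it, under half of replicates reach it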;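 note: signal also drops with host cell toxicity which is not excluded here; 0% = plate median of DMSO wells and 100% = zero luminescence signal; higher percent means less beta-gal luminescence so fewer parasites; stock transfer was 50 nL into about 50 µL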
rRNA inh HTS: selective bacterial rRNA inhibition in E. coli; E. coli WT GFP vs humanized-ribosome RFP mutants, fluorescence, 24 h; active compounds read low; DMSO median 0, no signal -100; GFP signal change (wild-type ribosome), % (test concentration not listed); 350,000 tested, 1.6% active; AID 720706;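 active = significant combined selectivity score with lowered wild-type GFP, culture density cut under 30%, mutant RFP and density less affected; inactive = any of these conditions unmet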; note: one replicate is shown; some compounds called inactive have numbers as strong as hits
MLL AF4-AF9 inh: blocks AF4 peptide binding to human AF9 | P42568 | AlphaScreen, biotin-AF4 peptide binding to FLAG-AF9 | inhibition, % at 10 µM | 350,000 tested, 0.47% active;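 active = every replicate reaching a set inhibition limit, whatever the replicate mean, cut at about 25% in these data; inconclusive = mean inhibition reaches that limit but some replicates miss it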;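 note: 0% = plate neutral control median and 100% = total signal loss; the record names both 10 and 1 µM as test concentration; the first replicate is given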
Target sequence (P42568 whole entry, looked up): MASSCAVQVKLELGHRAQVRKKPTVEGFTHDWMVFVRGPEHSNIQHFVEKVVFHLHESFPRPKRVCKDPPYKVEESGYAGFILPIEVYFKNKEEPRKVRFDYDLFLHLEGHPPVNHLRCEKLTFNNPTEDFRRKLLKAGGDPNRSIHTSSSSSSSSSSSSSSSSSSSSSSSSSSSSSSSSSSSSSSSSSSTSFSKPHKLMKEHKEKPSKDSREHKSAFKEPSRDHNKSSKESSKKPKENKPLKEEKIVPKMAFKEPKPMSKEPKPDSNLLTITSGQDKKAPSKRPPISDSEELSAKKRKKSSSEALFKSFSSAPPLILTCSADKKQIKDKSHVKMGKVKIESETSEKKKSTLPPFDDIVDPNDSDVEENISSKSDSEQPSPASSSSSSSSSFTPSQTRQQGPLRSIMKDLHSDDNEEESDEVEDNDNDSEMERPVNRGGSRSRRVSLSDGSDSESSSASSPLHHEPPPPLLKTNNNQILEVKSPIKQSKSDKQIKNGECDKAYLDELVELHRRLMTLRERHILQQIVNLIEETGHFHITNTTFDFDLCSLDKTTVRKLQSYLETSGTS
rRNA inh HTS OD600: further read-out of rRNA inh HTS, marked with its call; OD600 change, %; measured here: OD600 growth;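 optical density of the mix in the first replicate; 0 = DMSO median and -100 = no signal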
rRNA inh HTS RFP: second read-out of rRNA inh HTS, no call of its own (marks repeat the call); RFP signal change, %; measured here: RFP humanized mutant strains;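 first replicate; 0 = DMSO median and -100 = no signal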
Numbers without * were called inactive; ? = inconclusive; . = not tested or not shown; & = joins results of further samples. An excerpt. The share of hits here may be higher or lower than overall.

Values run as follows: Calb FLC	Vif TR-FRET	RanGTP-Impb inh	Beta cell apopt	A1 inh	T cruzi repl	rRNA inh HTS	rRNA inh HTS OD600	rRNA inh HTS RFP	MLL AF4-AF9 inh
COc1ccc(C(=O)CCC(C)(C)[N+](=O)[O-])cc1OC
→ 5.5	-8.3%	-1.9	-4.0	-0.1	-14.0	-0.6	-11.2	0.4	-1.7
Cc1cc(NC(=O)c2ccc(NC(=O)c3cccs3)cc2)no1
→ 25.0	?	-3.1	6.0	-0.2	12.1	.	.	.	.
O=C(CCCl)Nc1cc(SCCO)cc([N+](=O)[O-])c1
→ 1.5	6.0%	2.6	-1.4	0.5	-29.2	.	.	.	.
CN(C)c1ccc(/C=N/N(CCC(=O)NC(C)(C)C)C2=NS(=O)(=O)c3ccccc32)cc1
→ 22.4	-25.6%	-5.7	13.2	0.5	20.8	38.5	10.3	3.9	0.2
CCN1CCN(CCc2nc3cc(NC(=O)COc4ccc(Cl)cc4)ccc3n2C)CC1
→ 44.3	4.8%	-0.9	0.5	1.1	41.1	-12.2	0.1	5.2	-1.7
CCOCCCNC(=O)C1(O)c2cc(Br)ccc2NC(=O)N1c1ccc(OCC)cc1 (stereo not given)
→ -4.5	-9.2%	-2.6	-8.4	0.8	4.1	5.9	18.1	0.1	-3.3
CC(=O)OCC(OC(C)=O)C(OC(C)=O)C(OC(C)=O)C(=O)Nc1ccc(C)cc1 (stereo not given)
→ -4.3	7.0%	8.3	-0.8	-0.4	0.9	.	.	.	.
COc1cc(C(=O)N/N=C/C2CC=CCC2)cc(OC)c1OC (stereo not given)
→ -19.0	.	-2.9	-2.3	1.0	2.0	.	.	.	.
Cc1cccc2sc(N(CCN3CCOCC3)C(=O)CCS(=O)(=O)c3ccccc3)nc12
→ 3.1	-4.8%	0.7	.	0.2	-7.9	6.0	3.1	-2.3	1.1
COc1ccc(NC(=S)NC(C)C(c2ccccc2)N2CCOCC2)cc1 (stereo not given)
→ 36.3	2.8%	-3.0	0.0	0.0	-20.2	4.5	2.5	-1.7	1.3
CCC1=NN(C(=O)c2ccc(Cl)cc2)C(O)(c2ccccc2)C1 (stereo not given)
→ -52.3	-3.3%	3.1	6.5	-0.4	9.9	-0.4	-3.5	0.1	-7.7
COc1ccc(S(=O)(=O)Oc2ccc(C(=S)N3CCOCC3)cc2OC)cc1
→ -8.9	-7.3%	4.5	-0.5	2.4	6.4	-16.2	-18.5	-2.5	-4.2
CCCC[C@H]1COCCS(=O)(=O)N1Cc1ccc(F)cc1
→ 2.5	.	5.5	-2.5	-0.1	12.4	-34.7	-35.5	-8.6	-0.9
Cc1ccc(C(=O)N2CCCC(C(=O)c3ccc(Cl)cc3C)C2)cn1 (stereo not given)
→ -1.6	.	-0.9	-3.7	0.6	3.1	-0.1	-8.6	3.4	-0.9
O=C(COc1ccc2ccccc2c1Br)Nn1cnnc1
→ 13.8	-6.0%	3.1	-9.4	0.0	-10.3	.	.	.	.
Cc1ccc(S(=O)(=O)N2CCC(C(=O)Nc3ccc(S(=O)(=O)N4CCCC4)cc3)CC2)cc1C
→ 2.2	3.2%	2.2	6.7	1.9	74.4*	-1.1	-1.6	-2.6	5.5
CCc1cc(Cl)c(OC)c(C(=O)NC[C@@H]2CCCN2CC)c1O
→ -6.0	.	-0.8	.	0.4	35.4	.	.	.	1.0&-2.9
CC(=O)Nc1nc2c(s1)CCc1ccccc1-2
→ -4.0	0.0%	-0.2	3.8	-0.2	-4.3	-6.1	-22.4	-0.9	0.9
Nc1nc2c(s1)CCc1ccccc1-2
→ -7.2	-2.5%	4.5	-6.7	-0.2	-2.5	-3.1	-4.0	-0.6	9.1
Cc1cccc(OCCn2c(CCCO)nc3ccccc32)c1
→ 4.2	0.8%	-5.3	-0.7	0.0	6.0	.	.	.	.

Additional entries
Values run as follows: Calb FLC	Vif TR-FRET	RanGTP-Impb inh	Beta cell apopt	A1 inh	T cruzi repl	rRNA inh HTS	rRNA inh HTS OD600	rRNA inh HTS RFP	MLL AF4-AF9 inh
COc1cc(NC(=O)c2ccc(Br)cc2)c(OC)cc1NC(=O)c1ccccc1
→ 3.9	-5.9%	-0.6	-4.6	0.8	-0.7	8.6	18.1	-0.6	0.0
CCOc1cc(C(=O)Nc2cccnc2)cc(OCC)c1OCC
→ 1.1	.	5.7	5.7	0.0	-3.1	-0.7	-6.3	1.5	-1.0
Cc1cc(C)nc(N/N=C/C(Cl)=C/c2ccccc2)n1
→ 49.3	?	-0.9	3.2	0.9	9.6	-26.0*	9.8*	8.1*	-3.3
COc1ccc(N2CCN(S(=O)(=O)c3cc(C)ccc3OC)CC2)cc1
→ 1.6	15.9%	?	0.2	-0.5	21.8	-7.4	-10.4	-2.0	8.2
COc1ccc(OCC(=O)NNC(=O)C2CCCO2)cc1 (stereo not given)
→ 3.1	13.9%	1.1	-3.4	0.7	-10.9	.	.	.	.
CCOc1ccccc1NC(=O)COC(=O)CN(C)S(=O)(=O)c1ccc(C)cc1
→ -4.4	10.4%	-2.7	-1.0	-0.2	-9.4	.	.	.	.
CCC(C)c1ccccc1NC(=O)C(C)OC(=O)c1ccco1 (stereo not given)
→ -6.0	-3.9%	1.1	2.0	-0.3	-11.1	6.5	2.7	0.5	-1.9
O=C(c1ccc(Cl)cc1)C1CCCN(C(=O)c2csnn2)C1 (stereo not given)
→ -0.9	-2.1%	-0.3	-2.4	0.5	-2.1	-9.7	-14.8	-1.8	1.0
N#CC1=C(N)Oc2cc(N)ccc2C1c1ccccc1F (stereo not given)
→ -3.5	-3.0%	120.8*	6.2	1.0	-0.2	-0.5	7.3	4.5	-6.7
CCC[C@@H](CN1CCC[C@H]1CN1C(N)=NC[C@H]1CC(C)C)N1C[C@@H](Cc2ccccc2)N(CCc2ccc(Cl)c(Cl)c2)C1=N
→ .	-10.8%	.	-11.5	0.5	.	-61.8	-80.9	-19.7	33.3*
CCOc1ccc(C(=O)NCC(=O)OCc2csc(-c3ccccc3)n2)cc1
→ -7.8	2.0%	0.6	3.3	-0.5	-11.8	11.9	10.3	1.6	-4.6
COc1ccccc1NC(=O)CNC(=O)c1ccc(Br)o1
→ 12.2	-2.9%	3.6	-2.1	0.7	-9.6	7.0	6.3	1.4	-5.5
CN1CCN(C(=O)/C(=C\c2cccc([N+](=O)[O-])c2)NC(=O)c2cccs2)CC1
→ 6.9	6.0%	-0.2	-2.2	0.3	4.3	8.2	6.0	-0.2	-0.7
Cc1nnc(SCC(=O)NCc2ccc3c(c2)OCO3)[nH]c1=O
→ -6.7	22.5%	-0.7	-3.0	-0.7	-0.1	.	.	.	.
Cc1ccc(-c2nn(-c3ccccc3)cc2/C=N/NS(=O)(=O)c2ccccc2)cc1
→ 27.4	?	-2.2	.	1.5	11.3	.	.	.	.
Cc1c(NC(=O)c2cc(-n3cnnc3)ccc2Cl)cccc1-c1nc2ccccc2o1
→ 1.1	15.7%	.	2.7	0.7	.	.	.	.	.
N#Cc1c(NC(=O)CSc2ncn(-c3ccccc3)n2)sc2c1CCCC2
→ -1.1	-5.0%	2.8	-4.6	0.7	6.1	.	.	.	.
CC(C)c1ccc(NC(=O)COc2ccccc2)cc1
→ 0.1	.	-2.7	-4.0	-0.1	-4.1	-16.8	-29.2	-12.4	-2.9
O=C(CN1CCCCCC1)Nc1ccccc1F
→ -7.3	-6.9%	?	.	0.2	-1.3	.	.	.	.
COCCNC(=O)c1cccc(OC2CCN(Cc3ccc(C(C)C)cc3)CC2)c1
→ -8.3	.	-1.7	4.0	0.6	40.5	-9.3	-7.5	-3.6	-3.6

New compounds follow
Values run as follows: Calb FLC	Vif TR-FRET	RanGTP-Impb inh	Beta cell apopt	A1 inh	T cruzi repl	rRNA inh HTS	rRNA inh HTS OD600	rRNA inh HTS RFP	MLL AF4-AF9 inh
CCCC(=O)Nc1c(C)n[nH]c1C
→ -8.8	-2.1%	-2.1	-7.9	1.0	-3.6	.	.	.	.
Cn1cnnc1Sc1ccc(C(=O)OCC(=O)NC2CC2)cc1[N+](=O)[O-]
→ 1.9	3.5%	.	.	.	.	12.6	9.9	0.7	1.9
CCc1ccccc1NC(=O)CN(C)C(=O)Cn1ncc(Cl)c(Cl)c1=O
→ -6.1	.	-4.0	-5.9	?	16.3	3.4	2.3	0.9	-0.9
Cc1cccc(C2CC3(CC(C)(C)NC(=S)N3)Oc3cc(O)ccc32)c1 (stereo not given)
→ 79.5*	14.3%	-4.3	4.3	0.0	25.5	-25.7	-36.1	-4.7	5.4
Cc1cc2c(cc1C)C(=O)NC(C)(C)C2
→ 1.5	3.8%	1.3	-8.1	0.1	-5.5	.	.	.	.
Cc1nc(N2CCCC2)c2ccsc2n1
→ 6.1	-2.0%	8.3	-5.2	-0.5	-6.6	.	.	.	.
CCc1nc(Sc2nc(C)cc(C)n2)c2oc3ccccc3c2n1
→ 1.7	-3.4%	2.2	-16.3	0.7	-3.5	.	.	.	.
COC(=O)c1nc2n(n1)C(c1cccc(Cl)c1)C1=C(CCCC1=O)N2 (stereo not given)
→ -1.2	3.7%	-2.7	4.1	0.3	1.1	3.0	-5.7	-1.8	2.0
O=C(c1ccco1)N1CCN(C(=S)Nc2cccc([N+](=O)[O-])c2)CC1
→ -11.0	-0.6%	2.0	-6.8	-0.7	-9.9	-6.9	-3.9	-1.3	-2.0
O=C(Nc1ccc2[nH]c(=S)sc2c1)c1ccccc1
→ -10.2	5.0%	1.9	0.6	-5.6	-4.6	.	.	.	.
COc1ccc(N2C(=O)C3C(C2=O)C(C(=O)c2ccc(Cl)cc2)N2CCCC32)cc1 (stereo not given)
→ -21.4	27.4%	-2.1	-12.4	0.2	-0.5	1.7	-14.3	-3.4	-0.3
COc1cc(NC(=O)Nc2ccccc2OC)c(OC)cc1NC(=O)CN1CCCCC1
→ -1.0	4.7%&-5.0%	-0.6	0.7	-0.3	11.0	.	.	.	.
O=C(Nc1cccc(C(F)(F)F)c1)/C(=C/c1ccco1)NC(=O)c1cccs1
→ 26.6	9.8%	-0.1	-8.9	0.8	-21.5	.	.	.	.
CCCCn1c(N)c(N(C)C(=O)c2ccc(Br)o2)c(=O)[nH]c1=O
→ .	.	.	-7.1	-0.3	.	3.5	5.4	-2.1	1.2
